Screening data: PubChem BioAssay, several laboratories
VCAM-1 up – boosters of cytokine-driven VCAM-1 levels – cell-based, plate reader, pooled HUVEC, TNFa stimulus (AID 455) | HUVEC TNFa-induced VCAM-1 immunofluorescence, plate reader; numbers were filed only for top-ranked candidate wells | augmentation, % at 5 µM | 10,000 compounds, 0.2% hits;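 active = a compound raising TNF-alpha-driven VCAM-1 surface staining, with its hit status upheld on visual or statistical review; inactive = the rest, including hits rejected on review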;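 note: 0% = TNFa with vehicle and 100% = strongest image-checked hit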
26S disassembly – blocks ATP-dependent breakdown of the yeast 26S proteasome. anti-FLAG beads, GFP-proteasome disassembly, flow cytometry. inhibition of disassembly, % (test concentration not listed). 24,000 compounds, 0.2% hits. AID 751;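 active = above 40%; inconclusive = likely self-fluorescent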;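 note: plate controls were ATP control with full disassembly for no effect and ATP-gamma-S intact proteasomes for full effect; higher percent means more bead fluorescence retained so stronger block of disassembly; stock transfer was 100 nL into about 10 µL; wells with too few beads may also be inconclusive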
Starred values were filed as active, the others as inactive; i = inactive; ? = inconclusive; . = no result given. A portion of the library; rates above refer to the full screens.

Screens in order: VCAM-1 up	26S disassembly
CCOc1ccc2[nH]c(=O)c(C(c3nnnn3CC3CCCO3)N3CCc4ccccc4C3)cc2c1 (stereo unspecified)
    i	0.5
Cc1nc2ccc(S(=O)(=O)NCC(=O)N3CCOCC3)cc2s1
    .	0.2
COc1ccc(-c2ccc(-c3noc(-c4ccccc4OC)n3)c(OC)n2)cc1
    i	?
Cn1c(=O)oc2cc(S(=O)(=O)NCCC(=O)N3CCc4ccccc4C3)ccc21
    i	4.6
NC(=O)c1c(NC(=O)CN2CCCC2)sc2c1CCCC2
    i	-0.5
Cc1cc(=O)oc(C)c1C(=O)NCCCN1C(C)CCCC1C (stereo unspecified)
    .	-7.8
COc1ccc(OC)c(NC(=O)CSc2nnc(Cn3c(=O)sc4ccccc43)n2C)c1
    .	4.1
CCCCn1c(SCc2cccnc2)nc2c1c(=O)n(C)c(=O)n2C
    i	0.5
O=C1CCCc2c1cc(C(=O)NCc1ccco1)c(=O)n2-c1ccc(Cl)cc1
    i	0.7
O=C(O)CC1CCCC(c2ccccc2)C1=O (stereo unspecified)
    i	0.6
CC(C)NC(=O)C1CCN(C(=O)N(C)C)CC1
    .	-0.4
O=C(C1COc2ccccc2O1)N1CCCC1 (stereo unspecified)
    i	1.2
COc1ccccc1NC(=O)CSc1nnc(CC(=O)Nc2ccccc2)n1C
    i	-3.9
CC1CCCCN1S(=O)(=O)c1ccc(C(=O)Nc2nnc(-c3ccccc3Cl)o2)cc1 (stereo unspecified)
    .	-1.1
CCOC(=O)N1CCC(NC(=O)Cn2ncn3c(cc4sc(CC)cc43)c2=O)CC1
    .	0.6
CCN(CC)CCCNc1oc(-c2cccc(Cl)c2)nc1C#N
    i	-2.4
CC1=C(C(=O)OCC(C)C)C(c2cc3c(cc2Br)OCO3)NC(=O)N1C (stereo unspecified)
    i	3.1
C=C(C)Cn1c(CCCNC(=O)C(C)(C)C)nc2ccccc21
    i	-1.1
CCCCSc1cc(C)nc2ncnn12
    i	0.8
CC(C)c1ccc(NC(=O)C(c2ccccc2)N2CCOCC2)cc1 (stereo unspecified)
    .	-1.4
Cc1ccc(C2CC(c3cccc(C)c3)n3ncnc3N2)cc1 (stereo unspecified)
    .	1.2
CC1(C)Cc2noc(N)c2C(C)(C)N1OC(=O)c1ccco1
    i	1.0
O=C(C1CCN(c2nnc(-n3cccc3)s2)CC1)N1CCN(c2cccc(C(F)(F)F)c2)CC1
    .	6.6
COc1ccc(OC)c(-c2cc(C(=O)NCc3cccs3)no2)c1
    i	0.1
CCCC(=O)n1nc(-c2ccc(OC)cc2)nc1N
    i	-0.2
CCCOc1ccc(/C=c2\sc3nc(-c4ccco4)nn3c2=O)cc1OCC
    .	125*
CCC(C)NC(=O)CCS(=O)(=O)c1ccc(Br)s1 (stereo unspecified)
    .	0.3
COc1ccc(C2CC(c3ccc(Cl)c(Cl)c3)Nc3nc(N)nn32)cc1 (stereo unspecified)
    .	0.6
COC(=O)C1=C(N)Oc2cc(C)n(Cc3cccnc3)c(=O)c2C1c1ccc(OC)c(OC)c1 (stereo unspecified)
    .	-0.5
C=CCn1c(=O)c2ccccc2n2c(SC(C)C(=O)Nc3nc(-c4ccccc4)cs3)nnc12 (stereo unspecified)
    i	0.1
Cc1nn(-c2ccc(C(=O)O)cc2)c(N)c1-c1ccccc1
    .	2.8
Cc1cncn1CCc1nc2c3ccccc3nc(=S)n2[nH]1
    i	-0.6
O=C(CCN1CCOCC1)Nc1ccc2c(c1)CCC2
    i	-0.4
COc1ccc(N2C(=O)C(Cl)=C(N3CCCC3)C2=O)cc1
    i	-5.0
O=C1CC(c2cccnc2)c2cc3c(cc2N1)OCO3 (stereo unspecified)
    i	0.2
Cc1ccccc1NC(=O)c1cnc2ccccn2c1=O
    .	2.6
CCOC(=O)N1CCN(C(=O)Cn2ncc3ccccc32)CC1
    .	-0.4
CCOC(=O)N1CCN(c2ccc(C(=O)c3cccc(F)c3)cc2)CC1
    .	0.1
CCCS(=O)(=O)N1CCCC(C(=O)NCCN2CCC(Cc3ccccc3)CC2)C1 (stereo unspecified)
    .	4.0
CCOc1ccc(Cc2nc(-c3nonc3N)no2)cc1OCC
    .	0.2
O=C(NC1CCCCC1)c1noc2c1CCCCC2
    .	1.4
CCOC(=O)N1CCN(C(=O)c2c(-c3ccccc3)noc2C)CC1
    i	-1.4
CC(C)(C#N)NC(=O)c1ccco1
    .	-1.1
CCOC(=O)N1CCC(NS(=O)(=O)c2cc(Br)cnc2N)CC1
    .	3.5
Cc1ccc(NC(=O)CN(C)S(=O)(=O)c2cccc3nsnc23)cc1
    .	-0.3
COc1ccc(S(=O)(=O)N2CCOCC2)cc1C(=O)Nc1cc(C)on1
    i	-1.1
CSc1nc(N2CCOCC2)c2ccccc2n1
    i	-0.7
Cc1nc(Sc2cccn2C)c(C(F)(F)F)c(=O)[nH]1
    i	0.9
COC(=O)CCc1c(C)c(C#N)c2nc3ccccc3n2c1N1CCCC1
    i	0.0
Cc1noc(/C=C/c2ccco2)c1S(=O)(=O)N1CCC(C(=O)NCc2ccco2)CC1
    .	-0.8
CCn1c(C(=O)N2CCC(Cc3ccccc3)CC2)cc2sccc21
    .	0.2
COc1ccccc1C(=O)N(CN1CCCC1=O)c1cccc(Cl)c1
    .	-0.3
COc1ccc(-c2cc(CCCC(=O)NCc3ccccn3)no2)cc1
    .	2.4
COC(=O)c1ccc(-c2nc(-c3ccc(Br)o3)no2)cc1
    .	-1.4
CCCCN(CC)C(=O)CN(C)S(=O)(=O)c1cccc2nsnc12
    .	-0.8
Cc1ccc(CNC(=O)C2CCN(S(=O)(=O)c3cccs3)CC2)o1
    i	0.1
CCC(=O)N1CCc2cc(S(=O)(=O)NCCCN(CC)Cc3ccccc3)ccc21
    .	-0.6
CC(=O)N1CCc2cc(S(=O)(=O)NC(CC(C)C)C(=O)N3CCn4c3nc3ccccc34)ccc21 (stereo unspecified)
    i	1.7
COc1cc(C)c(S(=O)(=O)Nc2ccc(CC(=O)O)cc2)cc1C
    .	3.7
O=C(Cn1cc2c(n1)CCCCC2)NCc1ccccc1
    .	-0.7

5 entries from above, bar-delimited:
compound | VCAM-1 up | 26S disassembly
Cc1noc(/C=C/c2ccco2)c1S(=O)(=O)N1CCC(C(=O)NCc2ccco2)CC1 | . | -0.8
CCn1c(C(=O)N2CCC(Cc3ccccc3)CC2)cc2sccc21 | . | 0.2
COc1ccccc1C(=O)N(CN1CCCC1=O)c1cccc(Cl)c1 | . | -0.3
COc1ccc(-c2cc(CCCC(=O)NCc3ccccn3)no2)cc1 | . | 2.4
COC(=O)c1ccc(-c2nc(-c3ccc(Br)o3)no2)cc1 | . | -1.4

Other entries.
Screens in order: VCAM-1 up	26S disassembly
Cc1oc(-c2ccc(Cl)cc2)nc1CSCC(=O)NCCCN1CCOCC1
    .	-3.4
Cn1c(=O)oc2cc(S(=O)(=O)NCCC(=O)N3CC=C(c4ccccc4)CC3)ccc21
    .	-0.7
CCC(=O)NC(c1ccccc1)c1nc2ccccc2[nH]1 (stereo unspecified)
    .	0.3
CCS(=O)(=O)N1CCCC(C(=O)NCc2ccc3c(c2)OCO3)C1 (stereo unspecified)
    .	-0.1
Cn1c(C(=O)N2CCCC2)cc2c(=O)n(C)c3ccccc3c21
    .	0.0
Cc1ccc(Br)cc1S(=O)(=O)N1CCN(c2ccccc2)CC1
    i	-0.1
CCCCNC(=O)CSc1nc2ccc(N3CCOCC3)cc2c(=O)n1CCc1ccccc1
    i	-0.8
Cc1ccc(-n2nc(-c3ccc(N)cc3)cc2N)cc1
    .	-0.1
CC(=O)c1cccc(NC(=O)NCc2ccccn2)c1
    i	1.3
O=C(O)CCCCCNS(=O)(=O)c1c(Cl)cccc1Cl
    .	-2.5
COc1ccc2c(=O)c3c(=O)n(Cc4ccco4)c(C(C)C)nc3oc2c1
    i	-0.3
O=C(NCCc1ccc(Cl)cc1)C1CC(=O)N(C2CCCCC2)C1 (stereo unspecified)
    .	-1.4
Cc1nc2sc(C(c3ccco3)N3CCC4(CC3)OCCO4)c(O)n2n1 (stereo unspecified)
    .	-1.3
CCN(CC)c1ccc2c(C)c(-c3ccc(N)cc3)c(=O)oc2c1
    i	2.0
COc1ccc(N2CCN(c3nc4c(c(=O)[nH]c(=O)n4C)n3Cc3ccccc3Cl)CC2)cc1
    .	1.4
COc1ccc(NC(=O)C(c2ccc(OC)cc2)N(C)C(=O)CNC(C)=O)cc1 (stereo unspecified)
    .	-0.9
CCOC(=O)N1CCN(C(=O)CN(c2ccc(C)cc2)S(=O)(=O)c2c(C)noc2C)CC1
    i	0.1
Cc1nc2c(C(=O)NCCc3ccccc3)c[nH]n2c(=O)c1Cl
    .	0.7
CC1(C)CC(CCNC(=O)c2ccc(-n3cnnn3)cc2)CC(C)(C)N1
    .	0.1
CCOC(=O)CSc1nnc(CNC(=O)c2cccs2)n1-c1cccc(C)c1
    .	-0.1
O=C(O)Cn1cc2c(n1)CCCC2
    i	-0.7
COc1ccc(NC(=O)C2CCCN(S(=O)(=O)c3cccc4cccnc34)C2)cc1 (stereo unspecified)
    .	0.5
CC(=O)NCCn1c(SCc2ccccc2F)nc2ccccc2c1=O
    .	-4.2
Cn1cccc1Cc1nnc(SCC(=O)Nc2ccc3c(c2)OCCO3)n1CCc1ccccc1
    .	0.8
CC12CCCCC1c1ccccc1C(=NCC(=O)O)N2 (stereo unspecified)
    .	2.0
NC(=O)CCCCC(=O)OCCCc1cccs1
    .	2.7
COc1cc(C2c3c(oc4c(C)cc(C)cc4c3=O)C(=O)N2Cc2cccnc2)ccc1O (stereo unspecified)
    i	0.6
Cc1ccc(CN2C(=O)CCC2C(=O)NCCN2CCOCC2)cc1 (stereo unspecified)
    .	5.9
COC(=O)c1c[nH]n2c(=O)cc(C)nc12
    .	0.0
Cc1cc(NC(=O)c2cnn3c(C(F)F)cc(C4CC4)nc23)no1
    i	-0.2
O=C(CCSc1ccccc1)N1CCN(C(=O)c2ccco2)CC1
    i	0.4
CC(C)(C)c1cnnn1-c1ccc(NC(=O)c2ccc3c(c2)OCO3)cc1
    .	0.4
CN1CCc2c(sc3c2C(=O)NC(c2ccc(-c4cccc(Cl)c4)o2)N3)C1 (stereo unspecified)
    .	8.0
Cc1oc(-c2ccc(Cl)cc2)nc1CN1CCC(C(=O)N2CCN(Cc3ccccc3)CC2)CC1
    .	32
CC(C)N1C(=O)c2ccccc2C1C(=O)NC1CCCCCC1 (stereo unspecified)
    .	-0.1
Cc1nc2cc(CO)ccc2n1C
    i	-3.5
CCCS(=O)(=O)N1CCC(C(=O)N2CCN(C(=O)OCC)CC2)CC1
    .	-1.4
O=C(O)CSc1sc(=S)sc1SCC(=O)O
    .	-0.7
CC1Cc2ccccc2N1C(=O)Cn1c(=O)oc2cc(S(=O)(=O)N3CCCCC3)ccc21 (stereo unspecified)
    .	0.4
CCS(=O)(=O)N1CCC(C(=O)NCCN2CCN(Cc3ccccc3)CC2)CC1
    .	0.3
CCn1c(Oc2ccc(Oc3ncc(Cl)cc3Cl)cc2)nc2c1c(=O)n(C)c(=O)n2C
    .	0.6
Cc1cccc(-n2nnc(C(=O)N3CCc4ccccc4C3)c2N)c1
    .	0.3
COc1cccc(NS(=O)(=O)c2ccc3[nH]cc(C(=O)NCCN4CCOCC4)c(=O)c3c2)c1
    .	-1.3
CC(C)CCNC(=O)NC(=O)CSc1nnc(COc2ccccc2Cl)o1
    i	-0.9
Oc1ccc(Br)cc1-c1nc2cnccn2c1NC1CCCC1
    .	0.3
COc1ccccc1CNC(=O)C1CCN(S(=O)(=O)c2cccc3cccnc23)CC1
    .	0.9
CC1CCCC(NC(=O)Cn2cc3c(n2)CCCCC3)C1C (stereo unspecified)
    .	0.4
Cc1cc(C(=O)Nc2cc(C)n(Cc3ccc(Cl)cc3)n2)no1
    i	0.3
COC(=O)c1[nH]nc2c1C(=O)N(C1CCCCC1)C2=O
    .	0.8
CC1CC(C)CN(CCCNC(=O)COc2cc(=O)n(C)c3ccccc23)C1 (stereo unspecified)
    i	0.7
O=S(=O)(c1cc(Cl)ccc1Br)N1CCOCC1
    i	-0.9
COCCN1C(=O)c2ccccc2C(C(=O)NCC2CCCO2)C1c1c[nH]c2ccccc12 (stereo unspecified)
    .	-2.3
O=c1c2ccccc2nnn1CSc1nc2cc(Cl)ccc2c(=O)n1Cc1ccco1
    i	-1.8
Cn1c(-c2ccccc2)cnc1SCc1nc2ccccc2c(=O)[nH]1
    i	1.6
O=C1CCCN1Cc1ncnn1-c1ccccc1
    i	-3.9
CC1(C)CC(=O)C(C=NCC2CCNCC2)=C(O)C1
    i	-2.0
COc1ccc(-n2c(SCC#N)nc3ccccc3c2=O)cc1
    i	-1.6
Cc1csc2nc(CNS(=O)(=O)c3cccnc3)cn12
    .	0.2
Cc1nc2ccccc2c(=O)n1CC(=O)N1CCOCC1
    i	0.7
COc1ccc(-n2nnc3c(SCC(=O)NCc4ccco4)ncnc32)cc1
    .	0.3
CCOc1ccc(N(CC(=O)NCC2CCCO2)S(=O)(=O)c2ccc(OC)c(OC)c2)cc1 (stereo unspecified)
    i	-0.7
CN1CCN(C(=O)C2CCC(CNS(=O)(=O)c3cccc4cccnc34)CC2)CC1 (stereo unspecified)
    .	-1.3
